LT uptake inh = anthrax lethal toxin internalization inhibition | Cells, anthrax lethal toxin internalization, FRET ratio (460/530) | Potency, µM (top dose mostly 40 µM), without a hit: at the highest dose activity change, negative = inhibition, most hits filed as inhibitors | 0.67% of 70,000 active | AID 912; active = well fitted falling ratio curve with the 530 nm signal flat; inconclusive = other ratio curves, or a change in one channel alone; inactive = flat curves in the ratio and both channels; the % refers to the ratio; note: % is set by controls: 0 for no effect and ±100 for the full control effect; nearly all actives have a fitted effect of over 50% in size; tested in ME-180 cells; beta-lactamase reporter
SmPrx2 inh = Schistosoma mansoni Prx2 inhibition; S. mansoni Prx2 activity coupled to TGR/GSH (TGR is thioredoxin glutathione reductase), NADPH fluorescence loss, qHTS; some inactives read as strong as hits; Potency, µM; 0.07% of 65,000 active; active means full or partial inhibition curve with a strong effect at the top dose; inconclusive means weaker partial or single-point curve; inactive means no accepted curve; note: series up to 57 µM; many of its hits are not listed in these tables
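Prx2 inhibition was measured as reduced NADPH consumption when electrons flowed from NADPH through TGR and glutathione to Prx2 and H2O2. Plates were read kinetically over 8 min; enzyme reagents were held at 4 deg C during dispensing.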
Numbers without * were called inactive; [ ] = remark or other dose. Potency is the fitted concentration of half-maximal effect. Some of the compounds tested; the hit share may differ from the screen's.

`CCCCSc1nnc(CCCCCNC(=O)OC(C)(C)C)o1` gave LT uptake inh inconclusive and SmPrx2 inh >57.
For COCCNC(=O)C(c1cccc(OC)c1)N(C(=O)Cn1nnc2ccccc21)c1cccnc1 (configuration not stated) the results were LT uptake inh 1% and SmPrx2 inh >57.
Screening COc1ccccc1-c1nnc2sc(COc3ccc(F)cc3)nn12 returned LT uptake inh -8% and SmPrx2 inh >57.
CCn1c(C(C)NC(=O)Cc2ccccc2)nc2ccccc21 (configuration not stated) was read as LT uptake inh 7% and SmPrx2 inh >57.
`COc1cccc(C2NC(=O)NC(C)=C2C(=O)Nc2cccc(C)c2C)c1` (configuration not stated) gave SmPrx2 inh >57.
Cc1cc(C)n(-c2nc3ccccc3nc2N2CCN(S(=O)(=O)c3ccc(F)c(C)c3)CC2)n1 was read as LT uptake inh 15% and SmPrx2 inh >57.
`CC1(C)Cn2c(nnc2-c2ccccc2)S1` gave LT uptake inh -6% and SmPrx2 inh >57.
Screening CCSc1nc(C)c(CC)c(C)c1C(N)=O returned LT uptake inh -9% and SmPrx2 inh >57.
`Oc1c(Cl)cc(Cl)c2c1NCCC2` gave LT uptake inh inconclusive and SmPrx2 inh >57.
`Cc1ncsc1CCCl` gave LT uptake inh -8% and SmPrx2 inh >57.
Screening CCn1c(SCC(=O)Nc2nc3ccc(OC)cc3s2)nc2c1c(=O)n(C)c(=O)n2C returned LT uptake inh -10% and SmPrx2 inh >57.
`O=C(CSCC(=O)N1CCOCC1)Nc1ccccc1` gave LT uptake inh 4%.
For CCNc1ncc2nc(-c3ccccc3)c(=O)n(CCC#N)c2n1 the results were LT uptake inh inconclusive and SmPrx2 inh >57.
`CCOC(=O)C1CCN(S(=O)(=O)c2ccc(Br)c(OCC)c2)CC1` gave LT uptake inh 2% and SmPrx2 inh >57.
`Cc1ccc(NC(=O)COC(=O)c2ccnn2C)cc1` gave LT uptake inh -4% and SmPrx2 inh >57.
`CCCNS(=O)(=O)c1ccc(CCC(=O)Nc2ccc3c(c2)OCO3)cc1` gave LT uptake inh -15% and SmPrx2 inh >57.
Screening NC12CC3CC(C1)CC(CO)(C3)O2 returned LT uptake inh -6% and SmPrx2 inh >57.
For Cn1c(SCC(=O)N2CCCc3ccccc32)nnc1-c1cccs1 the results were LT uptake inh -11% and SmPrx2 inh >57.
CC1=NN(c2ccccc2)C(=O)[C@@H]1N=Nc1ccc(S(N)(=O)=O)cc1 was read as LT uptake inh -8%[8 µM] and SmPrx2 inh >57.
For Cc1ccc2c(CC(=O)N3CCc4ccccc43)coc2c1 the results were LT uptake inh -19% and SmPrx2 inh >57.
`COC(=O)C1=C(C)N=C2SCCC(=O)N2C1c1cccs1` (configuration not stated) gave LT uptake inh 0%.
C#CCCCO/N=C1/C[C@@H](O)[C@@H](O)[C@@H]2[C@@H]3C(=O)N([C@@H](C)c4ccccc4)C(=O)[C@H]3CC[C@H]12 was read as LT uptake inh -8%[8 µM].
For Cc1cccc(N2CCN(C(=O)c3ccncc3)CC2C)c1 (configuration not stated) the results were LT uptake inh 6% and SmPrx2 inh >57.
For O=C(c1noc2c1CCCC2)N1CCCCC1 the results were LT uptake inh -2% and SmPrx2 inh >57.
`Cc1cc(NC(=O)CSc2nc3cc4c(cc3c(=O)n2CCc2ccccc2)OCO4)no1` gave LT uptake inh -2% and SmPrx2 inh >57.
`CCCCC(=O)Nc1ccc(C(=O)N2CCN(C)CC2)cc1` gave LT uptake inh 5% and SmPrx2 inh >57.
For NCC(=O)N[C@H](CO)C(=O)O the results were LT uptake inh -3%[8 µM] and SmPrx2 inh >57.
`CCc1nc2scc(-c3ccccc3)c2c(=O)n1N` gave LT uptake inh 12% and SmPrx2 inh >57.
`O=C1C(=O)N(CCO)C(c2cccc(F)c2)/C1=C(\O)c1ccc(Cl)cc1` (configuration not stated) gave LT uptake inh 19% and SmPrx2 inh >57.
O=C(CSc1nc2ccccc2c(=O)n1Cc1ccco1)c1ccccc1 was read as LT uptake inh -21% and SmPrx2 inh >57.
`O=C(O)CC1SC(=O)N(Cc2ccccc2)C1=O` (configuration not stated) gave LT uptake inh 1% and SmPrx2 inh >57.
`Cc1cc(C)c2oc(=O)cc(CN3CCOCC3)c2c1` gave LT uptake inh -2% and SmPrx2 inh >57.
`COc1cc2[nH]c3c(N4CCN(c5ccc(Cl)cc5)CC4)ncnc3c2cc1OC` gave SmPrx2 inh >57.
Cc1ccc2c(C)nc(NC3=NCN(C(C)C)CN3)nc2c1 was read as LT uptake inh 7% and SmPrx2 inh >57.
Cc1cccc(C)c1NC(=O)COC(=O)c1nonc1N was read as LT uptake inh 1% and SmPrx2 inh >57.
Screening Nc1ccccc1SCc1cn2ccccc2n1 returned LT uptake inh -3% and SmPrx2 inh >57.
For COc1ccc2c(c1)c(C(=O)CN1CCC3(CC1)OCCO3)c(C)n2C the results were LT uptake inh inconclusive and SmPrx2 inh >57.
Screening CCOCCCNCC(=O)Nc1ccc(OC(F)(F)F)cc1 returned LT uptake inh -15% and SmPrx2 inh >57.
For COc1cccc2cc(-c3nc(-c4cccs4)cs3)c(=O)oc12 the results were LT uptake inh inconclusive and SmPrx2 inh >57.
CCOC(=O)c1cccc(NC(=O)N[C@@H](C)C(=O)OC)c1 was read as LT uptake inh -13% and SmPrx2 inh >57.
`COC(=O)CCS(=O)(=O)c1cc(Cl)ccc1Cl` gave LT uptake inh -7%.
Screening CCN(CC)CCc1c(C)[nH]c(C(=O)OCc2ccccc2)c1C returned LT uptake inh -3% and SmPrx2 inh >57.
Cn1c(CCN2CCCCC2)nc2cc(NC(=O)C3CCCCC3)ccc21 was read as LT uptake inh inconclusive and SmPrx2 inh >57.
For CC1C=CCCOC1c1ccccc1 (configuration not stated) the results were LT uptake inh -8%[8 µM].
N=c1nc(N)nc(N)n1-c1ccc(S(N)(=O)=O)cc1 was read as LT uptake inh -9%[8 µM] and SmPrx2 inh >57.
CC(=O)Nc1ccc(OC/C=C(\C)Cl)cc1 was read as LT uptake inh -6%.
For c1ccc(N2CC[C@@]3(CCCNC3)C2)cc1 the results were LT uptake inh -6% and SmPrx2 inh >57.
CCCS(=O)(=O)N1CCCC(C(=O)NCCN(Cc2ccccc2)C(C)C)C1 (configuration not stated) was read as LT uptake inh inconclusive and SmPrx2 inh >57.
For CN(C)C(=O)c1ccc(-c2cncnc2NCc2cccs2)cc1 the results were LT uptake inh -3% and SmPrx2 inh >57.
O=C(CS(=O)CC(=O)Nc1ccc(Cl)cc1)NCC1OCCc2ccccc21 (configuration not stated) was read as LT uptake inh 1% and SmPrx2 inh >57.
For Nc1ncnc2c1ncn2CCN1CCCCC1 the results were SmPrx2 inh >57.
`CCOC(=O)CC(=O)CSc1nc(C)cc(-c2cccnc2)c1C#N` gave LT uptake inh 0% and SmPrx2 inh >57.
Screening Cc1cccc(C)c1OCC(=O)Nc1ncn[nH]1 returned LT uptake inh 4% and SmPrx2 inh >57.
Screening CCC1Oc2ccccc2N(CC(=O)NCCCN2CCOCC2)C1=O (configuration not stated) returned LT uptake inh -6% and SmPrx2 inh >57.
Screening CCCC(=O)Nc1cccn(Cc2ccccc2Br)c1=O returned LT uptake inh 0% and SmPrx2 inh >57.
Clc1cccc(CSc2nnc(-c3cccnc3)n2Cc2ccco2)c1 was read as LT uptake inh -9% and SmPrx2 inh >57.
`CCCC[C@@H]1C[C@H]1C(NC(=O)c1cccs1)c1ccc(-c2ccccc2)cc1` (some centres not stated) gave LT uptake inh -1% and SmPrx2 inh >57.
For CCC(C)NC(=O)CN(c1cc(C)ccc1OC)S(C)(=O)=O (configuration not stated) the results were LT uptake inh -4% and SmPrx2 inh >57.
`COC(=O)C1C(c2ccccc2)C(C(=O)N2CCOCC2)C1c1ccccc1` (configuration not stated) gave LT uptake inh 2% and SmPrx2 inh >57.
Screening Cc1ccc(CN2C(=O)C(C)(C)Oc3ccc(C(=O)N4CCCCC4)cc32)cc1 returned LT uptake inh inconclusive and SmPrx2 inh >57.
Screening CCN(CC)S(=O)(=O)c1cc(C(=O)OC)ccc1Cl returned LT uptake inh -4%.
For CCN(CC)c1ccc2cc(NC(=O)CCC(=O)O)c(=O)oc2c1 the results were LT uptake inh inconclusive and SmPrx2 inh >57.
Cc1noc(C)c1S(=O)(=O)N1CCC(C(=O)N2CCC(C)CC2)CC1 was read as LT uptake inh 5% and SmPrx2 inh >57.
Screening CCCCCSc1nnc(C)c(=O)[nH]1 returned LT uptake inh -1% and SmPrx2 inh >57.
CCCn1c(=O)c(-c2ccccc2)c(O)c2ccccc21 was read as LT uptake inh 4% and SmPrx2 inh >57.
Screening FC(F)(F)c1ccc(Sc2nnc(-c3cccs3)n2CC2CCCO2)nc1 (configuration not stated) returned LT uptake inh 7% and SmPrx2 inh >57.
COc1ccccc1NC(NC(=O)c1ccco1)C(=O)c1ccccc1 (configuration not stated) was read as LT uptake inh -5% and SmPrx2 inh >57.
For CN(CC(=O)O)CC(=O)O the results were LT uptake inh 3%[8 µM] and SmPrx2 inh >57.
Cc1ccc(-c2noc(CCC(=O)Nc3cccc(C#N)c3)n2)cc1 was read as LT uptake inh -1% and SmPrx2 inh >57.
For CC(=O)N[C@@H]1CONC1=O the results were LT uptake inh -10%[8 µM] and SmPrx2 inh >57.
For CC(=O)O[C@]12CC[N@+]3(C)CCCC[C@@H]3[C-]1Nc1ccccc12 the results were LT uptake inh -9%[8 µM] and SmPrx2 inh >57.
O=C1CN=C(c2cccs2)c2c(sc3c2CCCC3)N1 was read as LT uptake inh -5% and SmPrx2 inh >57.
For CC(C)CC(=O)N1CCN(Cc2cccc(F)c2)CC1 the results were LT uptake inh -2%.
`Clc1ccc(CSc2nnc(Cn3cnc4ccccc43)o2)cc1` gave LT uptake inh inconclusive and SmPrx2 inh >57.
`CC(=O)NCCOc1ccc2oc3ccccc3c2c1` gave LT uptake inh -17% and SmPrx2 inh >57.
Screening COc1ccc(NC2c3ncccc3C(=O)N2Cc2ccccc2)c(OC)c1 (configuration not stated) returned SmPrx2 inh >57.
c1ccc(-c2nnn(CCN3CCCCC3)n2)cc1 was read as LT uptake inh inconclusive and SmPrx2 inh >57.
`CCOc1ccccc1C(=O)N(C)Cc1cc2ccccc2[nH]c1=O` gave LT uptake inh -18% and SmPrx2 inh >57.
CCN1C(=O)c2n[nH]c(C(=O)OC)c2C1=O was read as SmPrx2 inh >57.
Screening Cc1cc(C(=O)O)ccc1[C@H](N)C(=O)O returned LT uptake inh inconclusive and SmPrx2 inh >57.

Eleven structures out of the list, ordered by length of the SMILES, lowest first.
For CC(=O)N[C@@H]1CONC1=O the results were LT uptake inh -10%[8 µM] and SmPrx2 inh >57.
Screening CCCCCSc1nnc(C)c(=O)[nH]1 returned LT uptake inh -1% and SmPrx2 inh >57.
c1ccc(-c2nnn(CCN3CCCCC3)n2)cc1 was read as LT uptake inh inconclusive and SmPrx2 inh >57.
Screening Cc1cc(C(=O)O)ccc1[C@H](N)C(=O)O returned LT uptake inh inconclusive and SmPrx2 inh >57.
CCN1C(=O)c2n[nH]c(C(=O)OC)c2C1=O was read as SmPrx2 inh >57.
O=C1CN=C(c2cccs2)c2c(sc3c2CCCC3)N1 was read as LT uptake inh -5% and SmPrx2 inh >57.
CCCn1c(=O)c(-c2ccccc2)c(O)c2ccccc21 was read as LT uptake inh 4% and SmPrx2 inh >57.
`Clc1ccc(CSc2nnc(Cn3cnc4ccccc43)o2)cc1` gave LT uptake inh inconclusive and SmPrx2 inh >57.
COc1ccccc1NC(NC(=O)c1ccco1)C(=O)c1ccccc1 (configuration not stated) was read as LT uptake inh -5% and SmPrx2 inh >57.
Cc1noc(C)c1S(=O)(=O)N1CCC(C(=O)N2CCC(C)CC2)CC1 was read as LT uptake inh 5% and SmPrx2 inh >57.
For CC(=O)O[C@]12CC[N@+]3(C)CCCC[C@@H]3[C-]1Nc1ccccc12 the results were LT uptake inh -9%[8 µM] and SmPrx2 inh >57.

The listing continues.
CCCCNc1nc2ccccc2nc1NS(=O)(=O)c1cccs1 was read as SmPrx2 inh >57.
Screening CCc1nnc(NC(=O)CSc2nnc(-c3ccc(O)cc3)n2-c2ccccc2)s1 returned LT uptake inh -2% and SmPrx2 inh >57.
For CCCc1ccc(OCc2nc(-c3ccc(NC(=O)c4ccco4)cc3)no2)cc1 the results were LT uptake inh 0% and SmPrx2 inh >57.
`COc1ccc(OC)c(NC(=O)c2ccc(S(=O)(=O)N3CCN(C)CC3)cc2)c1` gave LT uptake inh 0% and SmPrx2 inh >57.
CCN(CC)C(=O)N1CCN(C(=O)c2ccc(C)cn2)CC1 was read as LT uptake inh -7% and SmPrx2 inh >57.
For CC1Oc2ccccc2N(CC(=O)Nc2ccc3c(c2)OCCO3)C1=O (configuration not stated) the results were LT uptake inh 6% and SmPrx2 inh >57.
CCOC(=O)c1ccccc1NC(=O)c1ccc(N(C)S(C)(=O)=O)cc1 was read as LT uptake inh -9% and SmPrx2 inh >57.
`COc1ccc2cc(C(=O)CCC(=O)O)ccc2c1` gave LT uptake inh -4%[8 µM] and SmPrx2 inh >57.
`CCOC(=O)c1c(CN2CCCCC2C)oc2ccc(OC)cc12` (configuration not stated) gave LT uptake inh -25% and SmPrx2 inh >57.
For CCc1c(C)sc(NC(=O)OC)c1C(=O)N1CCCCC1 the results were LT uptake inh inconclusive and SmPrx2 inh >57.
Screening Cc1ncc(CNC(=O)N(CCCl)N=O)c(N)n1 returned LT uptake inh inconclusive and SmPrx2 inh >57.
Screening C=CCn1c(=O)c2c3c(sc2n2c(Nc4ccc(OC)cc4)nnc12)CCCC3 returned LT uptake inh 22% and SmPrx2 inh >57.

From PubChem
